Sa helicase inh: S. aureus DNA helicase inhibition; 0.05% of 120,000 active; inhibition, %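 (tested at about 80 µM)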; purified S. aureus helicase, fluorescence unwinding assay; about half of the hits fall short of the stated cut;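 active = both duplicates at 50% or more, or one of them with a favoured structure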;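 note: 0% = mean of negative control wells and 100% = mean of positive control wells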
MgrA DNA FP: S. aureus MgrA-DNA binding modulation. 0.13% of 84,000 active. fluorescence polarization. inhibition, %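 (about 10 µg/mL by stock and volumes)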;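 active = above 50% in either of two replicates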;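 note: 0% = protein plus DNA without compound and 100% = DNA alone without protein; higher means less MgrA bound to DNA so lower polarization; one replicate is shown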
* marks the source's active call; other numbers are inactive results; . = not tested or not shown; & = joins results of further samples. An excerpt; rates above refer to the full screens.

No.	canonical_smiles	Sa helicase inh	MgrA DNA FP
1	O=C1/C(=C\c2c[nH]c3ccccc23)C(c2ccccc2)Oc2ccccc21 (configuration not stated)	.	-1.4
2	O=C(O)c1ccc(Nc2nc3ccccc3nc2NS(=O)(=O)c2cccs2)cc1	-9	.
3	Cc1cc(C)n2ncc(/C(N)=N/OC(=O)Nc3ccccc3)c2n1	-2	.
4	COC(=O)Nc1sc2c(c1C(=O)OC)CCC2	-3	5.3
5	O=C1c2ccccc2C(=O)c2c1oc1c3c(ccc21)OCN(C1CCCC1)C3	32	.
6	CSC(SC)=C(C#N)C(=O)c1cccc(C)c1	.	6.2
7	CCOCC(=O)Nc1nc2ccccc2s1	0	-1.2
8	COC(=O)c1cc(C(O)(C(F)(F)F)C(F)(F)F)c(N)s1	4	.
9	O=C(C1CCCN(S(=O)(=O)c2ccc(Br)s2)C1)N1CCN(Cc2ccc3c(c2)OCO3)CC1 (configuration not stated)	11	.
10	Cc1ccc(S(=O)(=O)N2C(=O)c3ccccc3C2=O)cc1	-5	.
11	CCCOC(=O)c1ccc2c(c1)C(=O)NC2=O	-14	.
12	O=C(NNC(=S)Nc1cc(Cl)ccc1Cl)c1sc2ccccc2c1Cl	.	2.9
13	CC(C)(C)c1ccc(-c2cc(NC(=O)c3ccccc3F)n[nH]2)cc1	.	-0.6
14	N#CC1=C(N)Oc2cc(O)ccc2C1C1CCCCC1 (configuration not stated)	-7	.
15	CCN(CC)c1nc(C)nc2c1sc1nc3c(cc12)COC(C)(C)C3	12	.
16	CC(=O)OC1COC(n2nnc3c(NC(=O)C(F)(F)F)cccc32)C(OC(C)=O)C1OC(C)=O (configuration not stated)	12	.
17	CCOC(=O)CC(=O)c1cccc([N+](=O)[O-])c1	.	0.6
18	CCn1c(COC(=O)Cc2n[nH]c(=O)c3ccccc23)nc2cc(S(=O)(=O)N(C)C)ccc21	1	.
19	CC(C)(C)c1ccc(NC(=O)CCSc2ccc3ccccc3n2)cc1	2	-1.0
20	CCOC(=O)c1cc(-c2ccc(OC(F)F)cc2)nc2nc(SC)[nH]c(=O)c12	17	.
21	O=C1CCC(C(=O)OCC(=O)Nc2ccc(F)cc2)=NN1	31	.
22	S=C(Nc1ccccc1)Nc1ccccc1-c1nc2ccccc2[nH]1	.	3.7
23	Cc1nn(-c2nc3ccccc3[nH]2)c(N)c1-c1ccccc1	-13	3.4
24	CC1(C)Cc2cccc(OCC(=O)NCC(F)(F)F)c2O1	9	.
25	COc1ccc(N2C(=O)c3ccccc3NC2c2ccc(OC)c(COc3ccc(NC(C)=O)cc3)c2)cc1 (configuration not stated)	.	-0.7

Retrieved one by one from above, 2 records:
No.	canonical_smiles	Sa helicase inh	MgrA DNA FP
13	CC(C)(C)c1ccc(-c2cc(NC(=O)c3ccccc3F)n[nH]2)cc1	.	-0.6
10	Cc1ccc(S(=O)(=O)N2C(=O)c3ccccc3C2=O)cc1	-5	.

Other results
No.	canonical_smiles	Sa helicase inh	MgrA DNA FP
26	O=C(CN1C(=O)COc2ccccc21)Nc1cccnc1	-1	.
27	O=C(Oc1ccc2c(c1)OCO2)c1ccc(CS(=O)(=O)c2ccccc2)o1	15	.
28	CC(C)C(=O)c1cn(CC(=O)N2CCCC2)c2ccccc12	-7	0.8
29	Cc1ccccc1-n1c(CSC(=N)N)nc2ccccc2c1=O	1	1.4
30	O=C(O)C1CCCCC1C(=O)N1CCCCCC1 (configuration not stated)	-6	-0.9
31	COc1ccc(C)cc1NC(=S)NN1CCOCC1	3	-2.4
32	CCOC(=O)c1sc(C)c2c(=O)[nH]c(-c3ccccc3)nc12	3	0.2
33	CCCCC[C@H](O)/C=C/C=C\C=C\C=C\[C@@H](O)[C@@H](O)CCCC(=O)O	.	-0.4
34	Nc1nc(SCC(=O)c2ccc(S(=O)(=O)N3CCCCC3)cc2)nc(-c2ccco2)n1	5	.
35	CC(C)n1c(SCC(=O)N2CCc3ccccc32)nc2c1c(=O)n(C)c(=O)n2C	2	0.8
36	CC(C)CNC(=O)c1nn2c(C(F)(F)F)cc(-c3cccs3)nc2c1Br	.	2.6
37	COC(=O)C1=C(O)CC(C(=O)OC)=C(O)C1	-14	.
38	Cc1ccc(NC(=O)COC(=O)c2ccc3c(c2)NC(=O)C2CCCN32)cc1 (configuration not stated)	9	.
39	Nc1ccccc1NC(=S)Nc1ccccc1C(F)(F)F	.	-0.2
40	Cn1c(N)nc(N)c(N)c1=O	-209	.
41	O=C(Nc1nc2ccc(Br)cc2s1)c1ccc(N2C(=O)CCC2=O)cc1	7	.
42	CC(C)(C)n1nc(-c2ccc(F)cc2)c(C#N)c1N	.	-0.9
43	CCOC(=O)C1CCN(Cc2coc3ccc(Cl)cc3c2=O)CC1	-2	-1.5
44	Cc1ccc(S(=O)(=O)CCc2nnc(NC(=O)c3ccc([N+](=O)[O-])cc3)s2)cc1C	.	-2.4
45	COc1cccc(OC)c1C(=O)N(C(=O)c1c(OC)cccc1OC)c1oc(-c2ccco2)c(-c2ccco2)c1C#N	-18	.
46	COc1cccc(C(=O)NCCSc2c[nH]c3ccccc23)c1OC	17	0.0
47	COc1cc(C2SCCS2)cc(Br)c1OS(=O)(=O)c1ccc(C)cc1	.	-2.6
48	Cc1nccn1CCCN	10	-6.6
49	O=S(=O)(CC(O)(c1ccccc1)c1ccccc1)c1cccc(C(F)(F)F)c1	.	1.5
50	COc1cc2c(cc1OC)C(C(=O)O)CC(=O)N2 (configuration not stated)	7	-2.7

Filtered by structure: those above with a COOH group
No.	canonical_smiles	Sa helicase inh	MgrA DNA FP
2	O=C(O)c1ccc(Nc2nc3ccccc3nc2NS(=O)(=O)c2cccs2)cc1	-9	.
30	O=C(O)C1CCCCC1C(=O)N1CCCCCC1 (configuration not stated)	-6	-0.9
33	CCCCC[C@H](O)/C=C/C=C\C=C\C=C\[C@@H](O)[C@@H](O)CCCC(=O)O	.	-0.4
50	COc1cc2c(cc1OC)C(C(=O)O)CC(=O)N2 (configuration not stated)	7	-2.7

Profiles as entered above. Order of screens: Sa helicase inh	MgrA DNA FP
Listed for `O=C(NNC(=S)Nc1cc(Cl)ccc1Cl)c1sc2ccccc2c1Cl` → .	2.9
Listed for `CC(C)C(=O)c1cn(CC(=O)N2CCCC2)c2ccccc12` → -7	0.8
Listed for `CC(C)(C)c1ccc(-c2cc(NC(=O)c3ccccc3F)n[nH]2)cc1` → .	-0.6
Listed for `COc1cc2c(cc1OC)C(C(=O)O)CC(=O)N2` (configuration not stated) → 7	-2.7
Listed for `CC1(C)Cc2cccc(OCC(=O)NCC(F)(F)F)c2O1` → 9	.

Further entries follow.
No.	canonical_smiles	Sa helicase inh	MgrA DNA FP
51	CCn1c(C)nc2cc(-c3nnc4n3-c3ccccc3SC4)ccc21	20	.
52	COc1ccc(NC(=O)C(Cl)Cl)cc1	.	-18
53	COC(=O)c1cccnc1-n1c(=O)[nH]c2ncccc2c1=O	8	.
54	Cc1cc(N2CCCC(O)C2)n2nc(C)c(-c3ccc(F)cc3)c2n1 (configuration not stated)	-14	1.4
55	Cc1nc2ccn(Cc3ccccc3)c(=O)c2cc1C(=O)N1CCCC1	-2	.
56	O=C(CSc1ccc(Cl)cc1)NCc1cccs1	.	-2.9
57	CC1CCCCN1C(=O)c1cccc2c1SCCC2=O (configuration not stated)	8	0.7
58	O=C1c2ccccc2-c2onc3c(N4CCCCC4)cc(N4CCCCC4)c1c23	6	2.9
59	CCCC(CCC)C(=O)Nc1cc(C(=O)O)cc(C(=O)O)c1	9	0.8
60	CC1Cc2ccccc2N1C(=O)CSc1nnnn1C(C)C (configuration not stated)	1	-2.3
61	c1ccc(-c2noc(-c3ccc4c(c3)OCO4)n2)cc1	-11	.
62	O=C(NC1CCCC1)C1CCCN(C(=O)Nc2ccccc2)C1 (configuration not stated)	3	-0.2
63	CCOc1ccc(NC(=O)c2cc(OC)nc3ccccc23)cc1	0	1.2
64	O=C(/C=C/c1ccco1)NCCc1ccccc1	-13	.
65	CC(C)CC(N)C(=O)N1CCOCCOCCOCC1 (configuration not stated)	26	1.6
66	CSC(=NC(=O)c1c(Cl)cccc1Cl)N1CCOCC1	20	.
67	Oc1c(C(c2cccnc2)N2CCOCC2)ccc2cccnc12 (configuration not stated)	27	.
68	CCO/C=C1\C(=O)N(Cc2ccccc2)C(=O)c2ccccc21	18	3.0
69	Cc1oc2c(c1C(=O)O)C(=O)c1ccccc1C2=O	2	.
70	O=C(CCC1CCCCC1)Nc1c[nH]c(=O)[nH]c1=O	11	-1.4
71	COc1ccc(CCC(=O)c2c(O)cc(O[C@@H]3O[C@H](CO)C(O)[C@H](O)C3O[C@@H]3O[C@@H](C)[C@H](O)[C@@H](O)[C@H]3O)cc2O)cc1O (some centres not stated)	.	1.0
72	O=C(O)CCCC(=O)N1CCN(Cc2ccc3c(c2)OCO3)CC1	2	.
73	CC(Sc1nnc2c(n1)[nH]c1ccccc12)C(=O)NC(C)(C)C (configuration not stated)	-3	3.2
74	O=C(COc1ccc2c(=O)c(-c3ccccc3)coc2c1)N1CCCCC1	16	.
75	CCOc1ccc2nc(NC(=O)C3=NNC(=O)CC3)sc2c1	8	.
76	CCNC(=S)Nc1cc(OCC)c(N2CCOCC2)cc1OCC	16	-0.6
77	O=C(/C=C/c1ccccc1)OCc1ncc(-c2ccccc2)o1	-4	.
78	Cn1c(CC(=O)O)c(S(C)(=O)=O)c2ccccc21	-6	-1.7
79	CCOc1ccc(OCC)c(S(=O)(=O)N2CCN(C34CC5CC(CC(C5)C3)C4)CC2)c1	4	.
80	CN(C)c1ncnc2c1[nH]c1ccccc12	7	.
81	Cc1ccc2c(=O)[nH]c(Cc3ccccc3C(=O)O)nc2c1	-2	-1.7
82	CCCN1CC=C2C(C1)C(c1ccc(C(=O)OC)cc1)C(C#N)=C(N)C2(C#N)C#N (configuration not stated)	-1	9.2
83	CCCCOc1ccccc1/C=N/N=C(N)N	-2	.
84	O=C(O)C1CCC(CNc2cc(=O)oc3ccccc23)CC1 (configuration not stated)	-20	.
85	Cc1nnsc1C(=O)NC(=O)c1ccccc1O	.	-1.0
86	N#C/C(=C\Nc1cccc(Cl)c1)S(=O)(=O)c1ccc(Cl)cc1	.	-1.9
87	Cc1cccc2nc(COc3ccc(Cl)cc3)cn12	11	.
88	CCOC(=O)C1CCCN(C(=O)CCNC(=O)Cn2ccc3ccccc3c2=O)C1 (configuration not stated)	-21	.
89	Cc1cc(-c2ccco2)n(CC(=O)NCCN(C)C)n1	-14	.
90	O=C(COC(=O)/C=C/c1ccc(Br)o1)NC1CCCCCC1	-4	.
91	CCCCNc1cc(C(=O)O)cc(S(N)(=O)=O)c1Oc1ccccc1	.	0.2&-0.4&4.9
92	Cc1ccccc1CS(=O)(=O)Cc1ccc(C(=O)Nc2noc3ccccc23)o1	-14	.
93	Cc1oc2ccc(OC(=O)c3ccc(Br)cc3)cc2c1C(=O)OC(C)C	.	-2.3
94	Cc1cc(NC(=O)Nc2ccccc2)c(C(F)(F)F)o1	.	-1.4
95	COc1ccc(C2NC(c3ccc(OC)cc3)C(C)C(O)(Cc3ccccc3)C2C)cc1 (configuration not stated)	-15	1.9
96	O=c1c(Cc2ccccc2)c(O)c2ccccc2n1-c1ccccc1	.	-1.8
97	COc1ccc(S(=O)(=O)N(CC(=O)N2CCN(c3ccccc3)CC2)c2ccc(C)cc2)cc1OC	.	1.3
98	Cc1csc2c(NCCCN3CCOCC3)ncnc12	.	2.3
99	Cc1[nH]c(-c2ccc(F)cc2)cc1C(=O)NCCc1ccc(S(N)(=O)=O)cc1	-3	0.0
100	O=C1Nc2ccc(Br)cc2/C1=C/C(=O)c1ccc2c(c1)OCO2	.	0.1

(listing goes on)
No.	canonical_smiles	Sa helicase inh	MgrA DNA FP
101	N#CC1(NC(=O)COC(=O)C2CC3CCCC(C2)C3=O)CCCC1 (configuration not stated)	7	.
102	O=C(c1ccc2c(c1)N(Cc1cccc(F)c1)C(=O)c1ccccc1S2)N1CCCCC1	7	8.7
103	COc1cc(/C=C/C(=O)O)cc(Br)c1O	9	-0.8
104	Cc1ccc(NC(=O)N(CCc2ccncc2)C(C)C)cc1C	-18	.
105	c1ccc(CSc2nnc(-c3ccco3)c(-c3ccco3)n2)cc1	1	.
106	Clc1nc(-c2cccs2)nc2ccccc12	4	.
107	CCOC(=O)N1CCN(C(=O)CNC2CCCC(C)C2C)CC1 (configuration not stated)	-7	.
108	CCOc1ccc(NC(=O)CNc2ccc(S(=O)(=O)N(C)C)cc2)cc1OCC	-7	.
109	O=C(O)CCN1c2cccc3cccc(c23)S1(=O)=O	6	.
110	Cc1ccc2nc(N3CCOCC3)c(/C=C3\SC(=S)NC3=O)c(=O)n2c1	-87	.
111	CCCCNC(=O)/C=C1\Sc2ccccc2NC1=O	-12	.
112	CCN1CCN(c2cc(C)c3cc(NC(=O)CCC(=O)Nc4ccc5c(c4)OCCO5)ccc3n2)CC1	50	.
113	CNC(=O)Nc1ccccc1NC(=O)NC	-7	3.9
114	CC(C)(C)C(=O)Nc1ccc(C(C)(C)C)cc1	.	0.6
115	O=C(Nc1cccc(Cl)c1)Nc1ccc(CSc2ccc(Cl)cc2)o1	.	2.0
116	COc1ccc(C2=NN(C(=O)CCCC(=O)O)C(c3cc4ccc(C)cc4nc3Cl)C2)cc1 (configuration not stated)	.	0.5
117	CS(=O)(=O)c1cccs1	.	-0.2
118	Clc1ccc2oc(-c3ccccc3)cc(=NCc3cccnc3)c2c1	18	4.6
119	Cn1c2ccccc2c2cnn(CC(=O)N3CCc4ccccc43)c(=O)c21	5	.
120	CC1CCc2c(sc(NC(=O)c3ccc(Cl)s3)c2C#N)C1 (configuration not stated)	-8	.
121	CC1C/C(=N/N=C2/NC(=O)CS2)CC(C)(C)C1 (configuration not stated)	3	1.4
122	CN(C1CCCCC1)S(=O)(=O)c1ccc2ccccc2c1	.	-0.2
123	COC(=O)c1sc(C(F)(F)F)c(-c2ccccc2)c1S(=O)(=O)NC(C)(C)C	.	2.6
124	O=C(Cn1cnc2c(cnn2-c2ccccc2)c1=O)NCc1ccco1	-5	.
125	COc1ccccc1C(CC(=O)N1CCCC1)c1ccc2c(c1)OCO2 (configuration not stated)	1	1.0

Source: PubChem
